Source: PubChem
Marburg entry inh = blocks Marburg virus binding to or entry into cells | Marburg virus pseudotyped entry inhibition, cell reporter; control for the full effect not named in the record; about a third of the inactives were read at about 46 µM | Potency, µM (titrated, usually from 37.8 µM), inactives show at the top dose activity change, negative = inhibition, actives largely listed as inhibitors | hit rate 1.8% among 300,000; active = well fitted inhibition curve with a large enough effect; inconclusive = small, poorly fitted or top-dose-only effect, or effect the other way; inactive = flat fitted curve, though single readings scatter; tested in HEK293 cells; about a fifth of its hits are not listed in these tables; further: on the % scale 0 is the no-effect control and ±100 the full control effect; luciferase read-out
RE007 growth inh = less growth of the S. pombe RE007 Vpr strain | S. pombe RE007 Vpr strain, BacTiter-Glo ATP luminescence, 24 h; control for the full effect not named in the record | Potency, µM (series often up to 92.2 µM), inactives show top-dose activity change, negative = less growth | hit rate 0.21% among 360,000 | AID 651644; active = well fitted falling curve with a large enough effect; inconclusive = small, poorly fitted or top-dose-only effect; inactive = no such curve, though single readings can be large or run the other way;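 further: on the % scale 0 is the no-effect control and ±100 the full control effect; nearly all actives have a fitted effect of over 50% in size; the assay follows cell death caused by Vpr and the record does not say whether a fall means rescue or toxicity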
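Fission yeast RE007 carrying one integrated HIV-1 vpr copy, seeded at OD 0.01 in PMG+AL medium with 23 nL pinned compound. Grown 24 h at 30 degrees; viability read by BacTiter-Glo luminescence after 5 min.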
SARS PLP yeast = inhibitors of SARS-CoV papain-like protease in yeast | S. cerevisiae expressing SARS-CoV PLpro, growth rescue; control for the full effect not named in the record | Potency, µM (doses to about 32.9 µM), for inactives: at the top dose activity, positive = growth rescue | hit rate 0.19% among 330,000; further: 0% is about no effect; nearly all actives have a fitted effect of over 55% in size; growth read by luminescence after 48 h
Lassa entry inh = blocks Lassa virus binding to or entry into cells; hit rate 1.2% among 300,000; Potency, µM (series often up to 37.9 µM), for the others: at the top dose activity change, negative = inhibition, hits mostly inhibitors; Lassa virus pseudotype entry inhibition, cell reporter; control for the full effect not named in the record; active means well fitted inhibition curve with a large enough effect; inconclusive means small, poorly fitted or top-dose-only effect, or effect the other way; inactive means flat fitted curve, though single readings scatter; tested in HEK293 cells; further: on the % scale 0 is the no-effect control and ±100 the full control effect; nearly all actives have a fitted effect of over 50% in size; luciferase read-out
Cruzain noTriton = inhibitors of Trypanosoma cruzi cruzain without detergent; P25779; purified cruzain, Z-FR-AMC fluorescence, no detergent; Potency, µM, for inactives: max response, negative = inhibition, most hits filed as inhibitors; hit rate 2.3% among 200,000; active means well fitted curve in the direction sought with a large enough effect; inconclusive means small, poorly fitted or top-dose-only effect, or another doubt; inactive means no such curve, though single readings can be large; an effect the other way counts as inactive or inconclusive;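 further: plate controls were enzyme without inhibitor for no effect and buffer without enzyme for full effect; nearly all actives have a fitted effect of over 40% in size; top concentration of the series not given in the record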
Target sequence (P25779 123-467 limits assumed): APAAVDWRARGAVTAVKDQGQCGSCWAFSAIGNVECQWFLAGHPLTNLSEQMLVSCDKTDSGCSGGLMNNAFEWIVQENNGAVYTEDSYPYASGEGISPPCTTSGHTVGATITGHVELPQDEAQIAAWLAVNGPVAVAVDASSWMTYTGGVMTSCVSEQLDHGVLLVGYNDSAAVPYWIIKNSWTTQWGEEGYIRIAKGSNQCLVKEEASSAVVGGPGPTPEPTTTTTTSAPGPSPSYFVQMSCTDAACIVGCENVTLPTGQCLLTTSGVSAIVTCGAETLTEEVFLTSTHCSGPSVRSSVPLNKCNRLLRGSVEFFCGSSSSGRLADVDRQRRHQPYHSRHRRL
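Purified cruzain at 1.5 nM, pre-incubated 15 min with compound at room temperature in 100 mM sodium acetate pH 5.5, 5 mM DTT, 0.00005% Triton X-100. Reaction started with 2 uM Z-FR-AMC; AMC fluorescence increase over 60 s gives rate.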
Cruzain inh Det = blocks cruzain activity in presence of Triton detergent | purified cruzain, Z-FR-AMC fluorescence, 0.01% Triton | Potency, µM, for the others: max response, negative = inhibition, most hits filed as inhibitors | hit rate 0.43% among 200,000; active means well fitted curve in the direction sought with a large enough effect; inconclusive means small, poorly fitted or top-dose-only effect, or another doubt; inactive means no such curve, though single readings can be large; an effect the other way counts as inactive or inconclusive;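 further: plate controls were neutral wells for no effect and buffer without enzyme for full effect; nearly all actives have a fitted effect of over 40% in size; top concentration of the series not given in the record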
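15 min RT preincubation of 1.5 nM cruzain with compound, then 2 uM Z-FR-AMC added; kinetic AMC fluorescence, 60 s delta. Triton X-100 0.01%, pH 5.5.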
NS1 inh = influenza NS1 inhibition. hit rate 0.4% among 270,000. Potency, µM (highest dose often 46.1 µM), for inactives: top-dose activity, positive = more growth. S. cerevisiae slowed by influenza A NS1, growth recovery by OD600. AID 2326; further: actives are rising curves; nearly all actives have a fitted effect of over 50% in size
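Growth recovery, yeast-based: influenza A NS1 expressed in S. cerevisiae causes slow growth, and suppressors are detected by OD600. The parent strain without NS1 is used as positive control.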
StopGo reporter = FMDV 2A StopGo reporter, luciferase signal. human cells with a luciferase reporter of 2A StopGo recoding; control for the full effect not named in the record. Potency, µM (top dose mostly 57.9 µM), for inactives: top-dose signal change, negative = less light. hit rate 1.2% among 410,000; active = well fitted falling curve with a large enough effect; inconclusive = small, poorly fitted or top-dose-only effect; inactive = no such curve, though single readings can be large or run the other way; tested in HEK293T cells; further: on the % scale 0 is the no-effect control and ±100 the full control effect; nearly all actives have a fitted effect of over 45% in size; luciferase light after 4 h
Active calls of the source: *; ? = inconclusive; . = no result given; & = joins results of further samples; [ ] = another dose, or the depositor's remark. Unless noted, the call rests on the fitted dose curve; in most records, active means well fitted rising curve with a large enough effect; inconclusive means small, poorly fitted or top-dose-only effect; inactive means no such curve, though single readings can be large or run the other way. Potency means the concentration at half of the fitted maximal effect.

SMILES	Marburg entry inh	RE007 growth inh	SARS PLP yeast	Lassa entry inh	Cruzain noTriton	Cruzain inh Det	NS1 inh	StopGo reporter
O=C(NC(CC(=O)N1CCCC(C(F)(F)F)C1)c1ccccc1)c1ccccc1Cl (stereo not given)	.	1%	-5%	.	.	.	1%	-9%
CCCN(C(=O)c1ccc2c(SCC(=O)O)c3c(nc2c1)CCC3)c1cccc(C)c1	.	5%	2%	.	.	.	6%	-10%
Cc1ccc(CSCC(=O)Nc2ccc(F)cc2)cc1	19%	?	-1%	8%	4%	-2.2%	-6%	27%
O=c1[nH]nc(-c2ccc(OCc3ccc(Cl)cc3Cl)cc2)o1	.	-5%	1%	.	.	.	-6%	-12%
CCn1c(SCc2ccccc2Cl)nc2nc3c(cc2c1=O)CCCC3	?	3%	-38%	?	13%	1.1%	-38%	-26%
O=C1NC(=O)C(=Cc2ccco2)C(=O)N1	?	12%	.	-4%[46.1 µM]	.	.	.	-4%
O=C1Nc2ccccc2/C1=N\N1CCOCC1	1%[46.1 µM]	-1%	0%	-5%[46.1 µM]	.	.	0%	-23%
Cc1ccc(-n2nc3c(c2NC(=O)c2cccs2)CS(=O)(=O)C3)c(C)c1	.	28%	26%	.	.	.	18%	-25%
O=C(NCC1CCCO1)c1cccnc1NCc1ccc(F)cc1 (stereo not given)	10%	2%	-3%	-5%	.	.	-2%	-11%
COc1ccc(Nc2nc(C)cc(C)c2C#N)cc1	3%	-4%	3%	-19%	-10%	1.6%	8%	-22%
CN(C)c1nnnn1-c1ccc(Cl)cc1Cl	-8%[46.1 µM]	21%	3%	-3%	.	.	.	-15%
COC(=O)c1c(C)cc(O)cc1O	.	-7%	.	.	-1%	-2.9%	.	-9%&-3%
COc1ccc(CNC(=O)C2CCN(S(=O)(=O)c3cccc(C(F)(F)F)c3)CC2)cc1	5%	0%	-3%	-6%	.	.	.	-6%
Cn1cc(Br)c(C(=O)Nc2nccs2)n1	15%	2%	6%	7%	-12%	-5.0%	2%	52%[activator]
CCOC(=O)CSc1nc2ccc(NC(=O)COc3ccccc3)cc2s1	-1%[46.1 µM]	.	.	-5%[46.1 µM]	-13%	-7.3%	.	-15%
Cc1ccc(SCc2cc(=O)[nH]c(N3CCN(Cc4ccc5c(c4)OCO5)CC3)n2)cc1	3%[46.1 µM]	14%	3%	8%	-7%	3.3%	-43%	-23%
CC(=O)c1ccc(-n2nnnc2SCC(=O)NNC(=O)c2ccco2)cc1	14%	-21%	2%	-10%	-5%	4.3%	13%	.
COc1ccc(N(C)S(=O)(=O)c2ccc3c(c2)CCN3C(=O)C2CC2)c(OC)c1	.	1%	?	.	.	.	-14%	?
CC(=O)NC(Cc1c[nH]c2ccccc12)C(=O)OCC(=O)Nc1ccc2c(c1)OCO2 (stereo not given)	?	2%	5%	-4%	-23%	-7.1%	-1%	-5%
Cc1cc(C)cc(OCC(=O)Nc2c(C(=O)c3ccccc3)oc3ccccc23)c1	-10%[46.1 µM]	.	.	-11%[46.1 µM]	12%	-1.3%	.	12%
CCn1c(SCC(=O)c2ccccc2)nnc1-c1cc2cc(Br)ccc2o1	?	12%	1%	?	-6%	0.5%	11%	-29%
COc1ccc(N(C(C)C(=O)N2CCC(Cc3ccccc3)CC2)S(C)(=O)=O)cc1 (stereo not given)	?	17%	-1%	?	.	.	5%	11µM*
CCOc1ccc(NS(=O)(=O)c2ccc(SC)cc2)cc1	-3%	11%	-32%	-14%	-7%	-9.4%	-5%	6%
Cc1c(Br)ccc(NC(=O)Cn2nc(-c3cccs3)ccc2=O)c1C	-30%[46.1 µM]	13%	3%	-1%	.	.	8%	-1%
Cc1cc(C)c(NC(=O)c2sc3nc(C)cc(C)c3c2NC(=O)c2ccccc2)c(C)c1	-27%[46.1 µM]	.	.	0%[46.1 µM]	-3%	-0.3%	.	-20%
O=C(NC1CCCCC1)c1ccc(CSc2nc3ccncc3n2Cc2cccc(F)c2)cc1	?	.	.	.	?	-0.4%	.	-22%
Cc1ccc2nc(NC(=O)CN3CCOCC3)sc2c1	-10%	6%	1%	19%	1%	-4.2%	6%	.
Cc1nn(C(C)C(=O)NNC(=S)Nc2ccc(F)cc2)c(C)c1[N+](=O)[O-] (stereo not given)	3%	7%	0%	-13%[14.3 µM]	-4%	0.4%	7%	17%
CCn1c(C)nc2cc(C(=O)N/N=C/c3ccc(N4CCOCC4)cc3)ccc21	3%[46.1 µM]	-1%	0%	13%	.	.	-7%	-12%
Cc1c(NC(=O)N2CCCCCC2)c(=O)n(-c2ccccc2)n1C	20%	?	6%	15%	7%	-1.3%	4%	-4%
CCOC(=O)N1CCc2c(sc(NCc3ccc(OC)c(OC)c3OC)c2C(=O)Nc2ccc(OC)cc2OC)C1	.	.	.	?	0%	-4.3%	.	?
COCCC(=O)N1CCC(Oc2ccc(C(=O)N3CCC(N(C)C)C3)cc2)CC1 (stereo not given)	.	22%	-2%	.	.	.	1%	9%
Cc1cc2ccccn2c1C(=O)c1ccc(F)cc1	?	-20%	-1%	?	.	.	-6%	-3%
COc1ccc(CC(=O)Nc2c(C(N)=O)oc3ccccc23)cc1	.	0%	-1%	.	.	.	9%	?
C=CCn1c(SCC(=O)N(C)C2CCS(=O)(=O)C2)nc2ccccc2c1=O (stereo not given)	.	0%	0%	.	.	.	5%	4%
CC1CC(C)CN(C(=O)CSc2nnc(CSc3ncccn3)n2C)C1 (stereo not given)	?	6%	0%	2%	-3%	2.8%	4%	-19%
Cc1cc(C)c(NC(=O)c2cc3c(nc4sccn43)s2)c(C)c1	-29%	4%	-33%	-24%	-14%	-6.0%	-62%	6%
Cc1ccc(C(=O)OCC(=O)Nc2cccc(Cl)c2C)c(O)c1	.	2%	0%	.	.	.	6%	-14%
CN(C)S(=O)(=O)c1cc([N+](=O)[O-])ccc1N1CCCCCC1	-16%	-8%	2%	-14%	-5%	-11%	4%	-19%
CNc1nc(Cl)c(SC)c(NC2CCCCC2)n1	-4%[46.1 µM]	-4%	3%	-26%[46.1 µM]	.	.	.	-28%
O=[N+]([O-])c1ccccc1N=NNc1ccccc1	?	6%	.	19%[46.1 µM]	.	.	.	21%
Cc1c(NC(=O)CCCOc2ccccc2)cccc1[N+](=O)[O-]	-11%	-3%	-2%	?	-7%	0.5%	0%	-1%
CC(=O)Nc1sc2c(c1C(N)=O)CCN(Cc1ccccc1)C2	-1%[46.1 µM]	-5%	0%	-21%[46.1 µM]	.	.	-3%	-20%
CCOC(=O)c1c(-c2ccc(-c3ccccc3)cc2)csc1NC(=O)CCC(=O)O	.	-5%	-4%	.	.	.	2%	-28%
COc1ccc(NS(=O)(=O)c2ccc(NC(=S)NC(=O)/C=C/c3ccc(C)cc3)cc2)nn1	0%	6%	-6%	0%	?	-7.9%	4%	10%

Record cards, from the list above:
Shown for `COc1ccc(CC(=O)Nc2c(C(N)=O)oc3ccccc23)cc1` : Marburg entry inh = .; RE007 growth inh = 0%; SARS PLP yeast = -1%; Lassa entry inh = .; Cruzain noTriton = .; Cruzain inh Det = .; NS1 inh = 9%; StopGo reporter = ?
Shown for `Cc1cc(C)c(NC(=O)c2cc3c(nc4sccn43)s2)c(C)c1` : Marburg entry inh = -29%; RE007 growth inh = 4%; SARS PLP yeast = -33%; Lassa entry inh = -24%; Cruzain noTriton = -14%; Cruzain inh Det = -6.0%; NS1 inh = -62%; StopGo reporter = 6%

New compounds follow.
SMILES	Marburg entry inh	RE007 growth inh	SARS PLP yeast	Lassa entry inh	Cruzain noTriton	Cruzain inh Det	NS1 inh	StopGo reporter
CC(C)(C)c1ccc(C(=O)NC(=S)Nc2sc3c(c2C#N)CCC3)cc1	?	13%	18%	?	10µM*	-4.1%	6%	-25%
COc1ccc(-c2nc(CS(=O)CC(=O)NCCN3CCCCC3C)c(C)o2)cc1OC (stereo not given)	.	-1%	-12%	.	.	.	6%	-9%
COCC(=O)Nc1nnc(C2CCCCC2)s1	1%[46.1 µM]	-8%	-5%	0%	17%	9.7%	-7%	49%[activator]
O=c1cc(C(F)(F)F)[nH]c2ccccc12	.	-7%	-1%	.	.	.	3%	-4%
N/C(=N\NS(=O)(=O)c1cc(C(F)(F)F)cc(C(F)(F)F)c1)c1ccccn1	?	5%	-1%	20%	.	.	4%	24%
COc1ccc(N(C(=O)CNC(=O)c2cccs2)C(C(=O)NCC2CCCO2)c2ccccc2)c(OC)c1 (stereo not given)	-3%[46.1 µM]	4%	-1%	6%	.	.	-11%	41%[activator]
Cc1ccc(N=Nc2c(C)[nH][nH]c2=O)c(C)c1	?	-29%	-1%	-17%	-1%	-4.2%	-10%	35%[activator]
CCO[C@H]1OC(C(N)=O)=C[C@@H](c2csc3ccccc23)[C@@H]1CCCO	.	-1%	0%	.	.	.	0%	-11%
Cc1[nH]c2ccccc2c1/C=N/Nc1ccc(F)cc1F	26%	.	-18%	7%	?	-0.7%	1%	.
Cc1cccc(N(C2C=CS(=O)(=O)C2)S(=O)(=O)c2ccccc2)c1 (stereo not given)	-3%	9%	-3%	-9%	7%	0.4%	-4%	-1%
COCCN(Cc1ccccc1)P(=O)(O)c1ccccc1OCC(=O)O	-2%	29%	.	-1%	6%	4.0%	15%	-16%

Looked up above:
Value for COCC(=O)Nc1nnc(C2CCCCC2)s1 under StopGo reporter: 49%[activator]
Value for Cc1cccc(N(C2C=CS(=O)(=O)C2)S(=O)(=O)c2ccccc2)c1 (stereo not given) under Cruzain inh Det: 0.4%
Value for COc1ccc(N(C(=O)CNC(=O)c2cccs2)C(C(=O)NCC2CCCO2)c2ccccc2)c(OC)c1 (stereo not given) under NS1 inh: -11%
Value for CCO[C@H]1OC(C(N)=O)=C[C@@H](c2csc3ccccc23)[C@@H]1CCCO under NS1 inh: 0%
Value for N/C(=N\NS(=O)(=O)c1cc(C(F)(F)F)cc(C(F)(F)F)c1)c1ccccn1 under Lassa entry inh: 20%
Value for Cc1[nH]c2ccccc2c1/C=N/Nc1ccc(F)cc1F under SARS PLP yeast: -18%
Value for CC(C)(C)c1ccc(C(=O)NC(=S)Nc2sc3c(c2C#N)CCC3)cc1 under RE007 growth inh: 13%
